# T cruzi inh: T. cruzi replication inhibition; AID 1885; 300,000 compounds, 1.4% hits; inhibition, % (no concentration beside the values); T. cruzi beta-gal in NIH3T3, luminescence, 90 h;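 active = mean inhibition across valid replicates above about 55%, limit read from the data; inconclusive = mean below that limit but half or more replicates reach it; inactive = mean below it, under half of replicates reach it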;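 note: signal also drops with host cell toxicity which is not excluded here; 0% = plate median of DMSO wells and 100% = zero luminescence signal; higher percent means less beta-gal luminescence so fewer parasites; stock transfer was 50 nL into about 50 µL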
# RanGTP-Imp inh: inhibitors of RanGTP-importin-beta interaction, primary screen, biochemical, FRET, CFP-Ran, YFP-importin-beta, homogeneous. cell-free CFP-Ran/YFP-importin-beta FRET ratio. inhibition, % (test concentration not listed). 300,000 compounds, 1.1% hits. AID 2216;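 active = most replicates above 15%; inconclusive = exactly half above 15%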;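 note: 0% = DMSO wells and 100% = Ran loaded with GDP instead of GTP; wells of about 40 µL received 100 nL stock; the first replicate is given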
# MLL AF4-AF9 inh: blocks AF4 peptide binding to human AF9; AID 651704; 350,000 compounds, 0.47% hits; inhibition, % at 10 µM; P42568; AlphaScreen, biotin-AF4 peptide binding to FLAG-AF9;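 active = every replicate reaching a set inhibition limit, whatever the replicate mean, cut at about 25% in these data; inconclusive = mean inhibition reaches that limit but some replicates miss it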;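 note: 0% = plate neutral control median and 100% = total signal loss; the record names both 10 and 1 µM as test concentration; the first replicate is given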
# Target sequence (P42568 whole entry, looked up): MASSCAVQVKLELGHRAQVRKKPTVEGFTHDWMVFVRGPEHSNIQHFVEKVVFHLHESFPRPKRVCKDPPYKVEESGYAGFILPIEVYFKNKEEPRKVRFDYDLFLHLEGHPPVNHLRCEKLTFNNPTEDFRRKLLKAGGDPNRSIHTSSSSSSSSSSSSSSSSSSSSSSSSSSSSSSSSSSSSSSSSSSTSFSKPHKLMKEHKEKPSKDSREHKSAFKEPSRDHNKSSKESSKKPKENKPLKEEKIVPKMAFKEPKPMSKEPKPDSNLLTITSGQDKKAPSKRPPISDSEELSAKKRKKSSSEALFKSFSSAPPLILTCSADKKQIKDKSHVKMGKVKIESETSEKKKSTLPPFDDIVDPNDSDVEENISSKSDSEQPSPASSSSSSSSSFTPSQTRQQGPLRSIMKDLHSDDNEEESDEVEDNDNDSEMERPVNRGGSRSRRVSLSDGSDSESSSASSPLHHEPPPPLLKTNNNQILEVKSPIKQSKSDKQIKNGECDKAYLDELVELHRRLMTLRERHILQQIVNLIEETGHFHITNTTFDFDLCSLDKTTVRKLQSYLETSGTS
# A1 inh: inhibitors of the anti-apoptotic protein A1, read as caspase activation | 330,000 compounds, 0.066% hits | MEF A1-2A-BIM cells, Caspase-Glo 3/7 luminescence, 3 h; percent of clofoctol response, vehicle zero | AID 2462 | caspase activation, % (test concentration not listed);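 active = over half of replicate activation scores above 10%, or exactly half above 10 with the replicate mean above 10; inconclusive = replicate mean below 10 yet half the replicates above 10; inactive = over half of replicates below 10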;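 note: wells of about 30 µL received 50 nL stock; many hits fall short of the cut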
# Beta cell apopt: beta cell apoptosis inhibition | protection from apoptosis, % (concentration not given with the values) | INS-1E cytokine-induced death, ATP luminescence, 48 h; percent of positive-control rescue, neutral wells zero | 300,000 compounds, 0.8% hits | AID 435005;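 active = all replicates at 75% or more, or half of them and the mean; inconclusive = half reach 75% but not the mean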;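 note: 0% = cytokine-treated negative control wells and 100% = positive control rescue; higher means more ATP so stronger rescue from cytokine killing; wells of about 40 µL received 100 nL stock; the first replicate is given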
# LANA-H2A inh: blocks KSHV LANA binding to histone H2A/H2B; cell-free LANA-H2A/H2B peptide, fluorescence polarization; inhibition, % (concentration not given with the values); 320,000 compounds, 0.6% hits; AID 2629; in the data active = inhibition mostly above about 10%, no sharp cut-off; inactive = mostly below about 6.7%;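 note: stock transfer was 7.5 nL into about 10 µL; 0% = median of vehicle wells and 100% = median of positive control wells; one replicate is shown; the record names a cut of 25% in any replicate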
# Calb FLC: affects C. albicans growth with fluconazole | C. albicans CaCi-2 (fluconazole-resistant clinical isolate) + fluconazole, Alamar Blue growth, 48 h | AID 1979 | 300,000 compounds, 0.57% hits | growth inhibition, % (test concentration not listed);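 active = most replicates above 75%; inconclusive = exactly half above 75%; inactive = most below 75%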;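 note: all wells also contain fluconazole at 8 µg/ml as a sub-toxic cotreatment; 0% = median of DMSO wells and 100% = median of geldanamycin control wells; wells of about 8 µL received 7.5 nL stock; the first replicate is given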
# Vif A3G: HIV-1 Vif–A3G interaction blockers – biochemical, TR-FRET, GST-Vif 1-94, biotin-A3G peptide, dose response retest, primary screen (AID 1117319). inhibition, %; hits with a dose series show IC50 in µM. 260,000 compounds, 0.57% hits. TR-FRET GST-Vif / biotin-A3G peptide binding; higher % means a stronger effect; test concentration not given here; strong numbers were not always called active;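 active = above the screen mean plus three standard deviations and confirmed in dose response; inconclusive = results disagree or hit not tested in dose response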;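 note: Vif residues 1-94 fused to GST binding biotinylated APOBEC3G peptide 110-148; 0% = full assay without inhibitor and 100% = GST in place of GST-Vif; retest series ran down from 100 µM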
# * marks the source's active call; other numbers are inactive results; ? = inconclusive; · = no result given; & = joins results of further samples. No enrichment for hits; any-hit rate near 4.3%.
SMILES,T cruzi inh,RanGTP-Imp inh,MLL AF4-AF9 inh,A1 inh,Beta cell apopt,LANA-H2A inh,Calb FLC,Vif A3G
Cc1oc(-c2ccccc2F)nc1CN1CCC(C(=O)NCc2cccs2)CC1,10,0.5,·,0.2,-2,-0.8,18,?
Cn1c(SCC(=O)c2ccccc2)ncc(C(=O)Nc2ccc(F)cc2)c1=O,-3,0.6,-4.4,-0.4,·,0.8,24,-2%
O=C(COc1ccc(S(=O)(=O)NCc2ccccc2)cc1Cl)NCc1ccncc1,5,-0.9,1.8,-0.9,-3,-5.3,5,·
C=CCn1c(=O)c2ccccc2n2c(SCc3nnc(-c4ccccc4Br)o3)nnc12,6,1.4,·,-0.1,5,-0.8,-7,-6%&-11%
CCOc1ccc2c(c1)nc(SCC(=O)c1cccs1)n2C,1,-5.1,·,-0.4,5,-1.0,-11,11%
O=C(NC(=S)Nc1ccc(S(=O)(=O)Nc2nccs2)cc1)c1ccccc1,-3,-1.5,·,0.4,-5,-9.0,-2,·
Cc1cccc(NC(=O)c2sc3nc(N4CCOCC4)c4c(c3c2N)CCCC4)c1,37,2.7,-4.2,0.4,·,0.1,13,·
CC1(C)C2CC[C@]3(C)C(CC=C4[C@@H]5C[C@@](C)(CO)[C@@H]6C[C@@]5(CC[C@]43C)C(=O)O6)[C@@]2(C)CC[C@@H]1O (stereo partly drawn),-4,2.6,·,0.2,0,1.1,9,·
CCc1cccc2c(-c3csc(=NC)n3C)c[nH]c12,2,1.7,9.8,0.6,-10,0.5,-1,·
C/C(=N\Nc1cc(N2CCCCC2)nc(C)n1)c1ccc(Br)cc1,72*,1.1,18,0.0,60,-1.0,0,10%
CCOCCCNC(=O)c1cn(CC)c2ccc(S(=O)(=O)N3CCOCC3)cc2c1=O,4,2.1,-1.9,-0.2,-4,2.4,3,-4%
Cc1cc(N2C(=O)C3CCC(c4ccccc4)CC3C2=O)no1 (stereo not drawn),-14,?,0.2,0.9,-3,-0.5,-6,2%
CCOC(=O)NC(C)N1C(=O)C2C3C=CC(C3)C2C1=O (stereo not drawn),-3,-1.7,-0.7,-0.5,1,-4.2,0,1%
Cc1c(Cl)cccc1NC(=S)N1CCN(Cc2ccccc2)CC1,10,-1.0,·,0.6,-13,5.6,-3,-4%
COc1cc(CNC2CCCC2)cc(OC)c1OC,-6,4.2,-1.7,0.4,-7,-3.9,-6,-2%
O=C1c2ccccc2C(Nc2ccc(S(=O)(=O)N3CCOCC3)cc2)N1c1ccccn1 (stereo not drawn),-3,2.3,6.5,-0.4,1,-3.2,1,4%
Cn1cnc(S(=O)(=O)Nc2ccc(Cl)c(C(F)(F)F)c2)c1,-14,-1.0,-1.6,2.7,-3,0.6,-5,-3%
CCOC(=O)Cn1cnc(-c2ccc([N+](=O)[O-])cc2)c1,-3,-1.6,·,-0.2,-2,-2.2,1,-5%
CCCN(CCC)S(=O)(=O)c1ccc(NS(C)(=O)=O)cc1,-8,0.9,·,0.4,·,1.7,?,-4%
NCCCC[C@H](N)c1nnc([C@H](CC(=O)O)NC(=O)C2CCNCC2)o1,-20,7.4,23,0.6,4,-3.5,-1,14%
Cc1c(O)c2c3c(cccc3c1O)C(=O)N(c1ccccc1)C2=O,-16,-22,·,-0.2,0,0.2,57,?
CCCc1cc(=O)oc2cc(C)cc(OC(C)C(=O)NCc3ccccn3)c12 (stereo not drawn),2,2.7,-2.9,-0.3,5,-1.0,-7,?
CN(C(=O)Nc1cnccc1C(F)(F)F)C1CCCCC1,-14,-1.0,-0.4,-1.3,8,0.8,1,-7%
CC(=O)N(C)c1ccc(NS(=O)(=O)Cc2ccccc2)cc1,6,-2.5,·,-0.3,4,-5.8,-23,10%
O=C(Nc1ccon1)c1cc2ccccc2oc1=O,-8,12,·,-5.3,-4,-0.6,35,8%

# Next section.
SMILES,T cruzi inh,RanGTP-Imp inh,MLL AF4-AF9 inh,A1 inh,Beta cell apopt,LANA-H2A inh,Calb FLC,Vif A3G
Cc1nc(-c2ccccc2O)n(-c2ccccc2)n1,2,3.5,·,0.2,-2,-0.3,25,3%
O=C1N=NC2=C1c1c3ccccc3c(O)n1CC2,-9,0.3,-0.7,-1.3,-4,0.8,40,66%
CCc1nnc(NC(=O)CSc2nnc(Cc3cccn3C)n2C)s1,-5,7.1,2.4,0.7,-1,3.2,7,9%
CCOC(=O)c1cnc2ccc(OCC)cc2c1NCCN1CCOCC1,13,2.3,2.2,0.3,28,0.2,-2,-6%
OCCCNc1c2ccccc2nc2ccccc12,70*,51*,-12,0.2,109*,-0.6,2,5%
Cc1ccnc(NC(=O)c2ccc(Cl)c(NC(=O)c3ccccc3C)c2)c1,-2,-0.7,·,-1.7,1,-0.9,-4,·
COc1ccccc1/C=C/C(=O)Nc1ccc2c(c1)OCCO2,-1,-2.3,·,-5.0,12,4.1,-1,?
N#CC(Sc1ccccn1)c1ccc(Cl)cc1Cl (stereo not drawn),12,2.3,-3.2,0.3,-6,-2.6,16,0%
CCn1c(CSc2nnc(-c3ccncc3)n2C)nc2cc(C(=O)O)ccc21,5,-3.5,1.5,1.0,-8,2.4,4,·
C=CCn1c(C23CC4CC(CC(C4)C2)C3)n[nH]c1=S,8,0.7,-6.3,·,·,·,-3,-6%
CCc1ccccc1NC(=S)N(CCN(C)C)C(C)c1ccccn1 (stereo not drawn),8,1.0,·,-0.1,-7,1.1,-20,3%
NC(=O)Cn1nc([N+](=O)[O-])nc1Oc1ccccc1C(=O)N1CCOCC1,-6,0.6,0.9,-0.3,-1,-0.1,-14,·
O=C(NC1CCSc2ccccc21)c1cccc([N+](=O)[O-])c1 (stereo not drawn),1,2.4,4.8,0.6,2,-1.1,-9,6%
CCOC(=O)c1ccccc1Oc1c(F)c(F)nc(NCCO)c1F,-13,0.7,·,0.7,-1,-6.8,21,-4%
COCCNC(=O)NC1(C(F)(F)F)Oc2ccc(Cl)cc2O1 (stereo not drawn),-1,1.5,·,2.8,-2,-4.1,-22,?
COc1ccc(Cl)cc1S(=O)(=O)NCc1cccs1,0,0.9,·,1.0,·,-1.1,-8,-2%
CCN(CC)S(=O)(=O)c1cccc(C(=O)NCC2CCCO2)c1 (stereo not drawn),-10,2.8,·,1.0,-5,-2.0,-1,-2%
Cc1ccccc1N1C(=O)CSC1=C(C#N)C#N,-11,-1.0,-1.5,-1.5,-1,·,2,3%
CC1(NC(=O)N2CCOCC2)CCS(=O)(=O)C1 (stereo not drawn),-8,0.1,-1.5,-0.5,-1,-12,-6,-2%
Cc1ccc(C(=O)N[C@H](C(=O)NC2CCCCCCC2)C(C)C)cc1,·,·,2.6,1.7,0,-7.0,·,-9%
COC(C[C@H](O)C[C@@H](O)[C@H](C)OCc1ccccc1)OC,-22,3.4,-5.3,·,·,·,10,·
COc1cc2c(cc1OC)C(c1ccccc1C(F)(F)F)CC(=O)N2 (stereo not drawn),15,-0.8,-2.4,-0.1,1,-1.3,6,-3%
CCN(CC)S(=O)(=O)c1ccc(-c2cn3ccc(C)cc3n2)cc1,6,1.9,-0.8,-1.4,·,14,1,·
CCOC(=O)c1sc(NC(=O)c2cccnc2)c(C#N)c1C,-28,-3.7,·,-0.5,7,1.5,?,-5%
COc1ccc(S(=O)(=O)NC2CCCCC2)cc1C(=O)N1CCCCC1,-1,0.4,-3.6,0.8,2,1.1,-1,·

# Next part
SMILES,T cruzi inh,RanGTP-Imp inh,MLL AF4-AF9 inh,A1 inh,Beta cell apopt,LANA-H2A inh,Calb FLC,Vif A3G
O=C(c1ccccc1F)N1CCN(S(=O)(=O)c2ccc(S(=O)(=O)N3CCCCC3)cc2)CC1,·,·,2.7,-0.2,1,-0.9,·,-2%
CCOc1ccc(C(=O)Nc2c3c(nn2-c2cccc(Cl)c2)CS(=O)C3)cc1 (stereo not drawn),9,1.1,·,0.5,1,3.8,-9,-9%
COc1ccc(S(=O)(=O)Nc2cccc(-n3cnnn3)c2)cc1OC,-14,3.2,0.1,0.3,-2,-0.8,1,·
CCOC(=O)c1c(P(=O)(N2CCOCC2)N2CCOCC2)noc1N,-12,-1.8,·,-0.8,-4,-2.8,4,0%
CCOC(=O)Cc1csc(NC(=O)COc2ccccc2OC)n1,12,0.7,·,0.2,-5,0.5,-14,-1%
O=C1CC(C(=O)Nc2ncccn2)C(c2ccccc2)O1 (stereo not drawn),-16,-2.0,·,0.4,-5,-1.9,-4,-11%
O=C(NCCN1CCOCC1)C1CCC(CNS(=O)(=O)c2ccc(Cl)cc2)CC1 (stereo not drawn),-11,-2.9,2.3,0.3,-13,-0.8,7,10%
COC(=O)CCC(=O)OC1(C)C(=O)C=C2C=C(C3CC3)N(C3CC3)C=C2C1=O (stereo not drawn),3,-4.1,-27,2.7,-8,5.0,-2,·
C=CCNC(=S)Nc1sc2c(c1C(=O)OCC)CC(C(C)C)OC2 (stereo not drawn),19,6.1,·,·,·,·,3,-8%
CSc1nsc(/C=C/Nc2ccc(Cl)cc2)c1C#N,23,6.0,·,2.1,8,-4.0,-7,5%
CN(CC(=O)Nc1ccccc1Cl)C(=O)CCc1nc2ccccc2c(=O)[nH]1,-4,-0.9,-6.6,0.2,·,0.9,6,2%
COCC(=O)Nc1cc(C)cn(Cc2c(F)cccc2Cl)c1=O,6,0.0,-4.8,0.3,-3,-4.5,3,0%
CN(C)/C=C(\C#N)C(=O)c1cccc(Oc2ccc(Br)cc2)c1,6,-0.8,·,-1.0,-3,0.5,1,-2%
COc1ccc([N+](=O)[O-])cc1NC(=O)C1C2C=CC(C2)C1C(=O)O (stereo not drawn),-4,-1.2,-1.1,0.7,-1,0.9,8,4%
c1ccc(CNc2nc(-c3ccccc3)nc3ccccc23)cc1,26,-1.9,-0.2,0.0,·,-4.9,2,-5%
Cc1cc(=O)oc2cc(NC(=S)NNC(=O)c3c(Cl)cnn3C)ccc12,-1,-0.8,-1.0,0.6,1,3.5,-1,5%
COc1ccc2cc(C(=O)C3CCCN(Cc4cnc(C)s4)C3)ccc2c1 (stereo not drawn),16,?,5.9,-0.8,13,-0.2,-3,3%
O=C1c2ccccc2C(=O)N1CCOc1ccc(F)cc1,-1,6.9,2.6,-2.6,1,-3.7,7,-8%
O=c1[nH]c(=O)n(Cc2ccco2)c2c1C(C(F)(F)F)(C(F)(F)F)N=C(c1ccco1)N2,·,·,·,0.8,12,3.7,·,13%
Cc1ccc(-c2noc(C3CCCN(S(=O)(=O)c4ccc5ccccc5c4)C3)n2)o1 (stereo not drawn),-5,3.6,·,-1.0,-12,-2.1,9,-1%
O=S(=O)(Nc1cccnc1Cl)c1ccc(-c2ccccc2)cc1,-6,3.3,-10,0.5,·,-2.2,-3,·
CCN(CC)c1cc(C)c2cc(NC(=O)c3cccs3)ccc2n1,28,3.7,0.0,-0.1,13,-4.9,-1,-4%
Cc1nc(-c2noc(-c3ccc(Cl)cc3)n2)c(C(F)(F)F)o1,-16,2.6,-0.1,-1.4,6,2.8,-3,-5%
CCOCc1c(C(=O)NCc2ccccc2CN2CCCC2)oc2ccccc12,·,·,2.9,-0.8,-2,-4.5,·,-3%
CCOC(=O)c1c(NC(=O)CSc2nnc(-c3cccnc3)o2)sc(C)c1C,-1,4.0,·,0.0,0,3.1,-7,-1%&4%
